Screens: PubChem, Southern Research Institute
total CFTR: compounds raising F508del-CFTR protein level – cell-based, HeLa F508del-CFTR, immunofluorescence, viability, primary screen (AID 1224863) | calls, or highest fold increase where a dose series was run | 10,000 compounds, 0.1% hits | HeLa F508del-CFTR, immunofluorescence total CFTR, 24 h; by the record results were divided by relative cell number; some inactives read as strong as hits; in the data nearly all actives have a first-pass fold increase above 1.5; a few of its hits are not listed in these tables;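 further: total CFTR protein by anti-CFTR immunofluorescence in fixed cells; first pass at 25 µM or 10 µg/mL by library and series up to twice that; 1 = untreated cells; first-pass hits also needed half or more of the cells alive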
total CFTR fold 25 µM: recorded beside total CFTR, whose call it bears; fold increase; measured here: primary screen single dose 25 uM; library dosed in µM
total CFTR fold 10 ug/mL: also measured in total CFTR; calls as there; fold increase; measured here: primary screen 10 ug/mL
total CFTR viability 25 µM: further read-out of total CFTR, marked with its call; viability, %; measured here: primary viability 25 uM; library dosed in µM;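 0% = killed and 100% = untreated cells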
total CFTR viability 10 ug/mL: further read-out of total CFTR, marked with its call; viability, %; measured here: primary viability 10 ug/mL;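 0% = killed and 100% = untreated cells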
* = called active by the depositor; i = inactive; nt = no result given; & = joins results of further samples.

Preview (16 entries):
SMILES	total CFTR	total CFTR fold 25 µM	total CFTR fold 10 ug/mL	total CFTR viability 25 µM	total CFTR viability 10 ug/mL
COc1cccc2c1C(=O)c1c(O)c3c(c(O)c1C2=O)C[C@@](O)(C(=O)CO)C[C@@H]3O[C@H]1C[C@H](N)[C@H](O)[C@H](C)O1	i	0.58&0.6	nt	42&38	nt
Cc1ccc(SCc2nc(N)nc(Nc3ccccc3C)n2)c(C)c1	i	nt	0.95	nt	74
COc1ccc(Nc2ccc([N+](=O)[O-])cc2C#N)cc1OC	i	nt	0.92	nt	85
O=c1[nH]cc(F)c(=O)[nH]1	i	1.1&1.2&1.2	nt	82&95&97	nt
CCC1CN(Cn2nc(-c3ccc(F)cc3)n(CC3CCCO3)c2=S)CCO1 (centres undefined)	i	nt	1.1	nt	93
CC(NS(=O)(=O)N1CCOCC1)c1ccc2c(c1)OCO2 (centres undefined)	i	nt	1.1	nt	81
Cc1ccc(C)c(-n2nnnc2Sc2ncnc3ccsc23)c1	i	nt	0.9	nt	94
Cc1nn(CN(C)CCOc2ccccc2)c(C)c1[N+](=O)[O-]	i	nt	0.98	nt	84
CC(=O)c1c(C)[nH]c(C(=O)C(C)Sc2nnnn2C2CCCCC2)c1C (centres undefined)	i	nt	0.84	nt	99
CCOC(=O)C1CCN(c2nc(N)c3c(N)nc4c(c3c2C#N)CC(=O)N4C)CC1	i	nt	0.8	nt	105
O=C(O)CSc1nncs1	i	nt	0.96	nt	101
Cc1ccc(C2=N/C(=C/c3ccc(N4CCOCC4)s3)C(=O)O2)s1	i	nt	1.1	nt	104
CS(=O)(=O)c1ccc(Oc2cccnc2[N+](=O)[O-])c(S(C)(=O)=O)c1	i	nt	0.94	nt	94
CCN(CCOC(=O)C1(c2ccc(Cl)cc2)CC1)c1ccccc1	i	nt	0.94	nt	95
CCCN(CCC)CCc1cccc2c1CC(=O)N2	i	1.1	nt	94	nt
COc1ccccc1-n1cnnc1SCc1cn2cc(Cl)ccc2n1	i	nt	1.1	nt	107

This part in full, previewed entries included:
SMILES	total CFTR	total CFTR fold 25 µM	total CFTR fold 10 ug/mL	total CFTR viability 25 µM	total CFTR viability 10 ug/mL
COc1cccc2c1C(=O)c1c(O)c3c(c(O)c1C2=O)C[C@@](O)(C(=O)CO)C[C@@H]3O[C@H]1C[C@H](N)[C@H](O)[C@H](C)O1	i	0.58&0.6	nt	42&38	nt
Cc1ccc(SCc2nc(N)nc(Nc3ccccc3C)n2)c(C)c1	i	nt	0.95	nt	74
COc1ccc(Nc2ccc([N+](=O)[O-])cc2C#N)cc1OC	i	nt	0.92	nt	85
O=c1[nH]cc(F)c(=O)[nH]1	i	1.1&1.2&1.2	nt	82&95&97	nt
CCC1CN(Cn2nc(-c3ccc(F)cc3)n(CC3CCCO3)c2=S)CCO1 (centres undefined)	i	nt	1.1	nt	93
CC(NS(=O)(=O)N1CCOCC1)c1ccc2c(c1)OCO2 (centres undefined)	i	nt	1.1	nt	81
Cc1ccc(C)c(-n2nnnc2Sc2ncnc3ccsc23)c1	i	nt	0.9	nt	94
Cc1nn(CN(C)CCOc2ccccc2)c(C)c1[N+](=O)[O-]	i	nt	0.98	nt	84
CC(=O)c1c(C)[nH]c(C(=O)C(C)Sc2nnnn2C2CCCCC2)c1C (centres undefined)	i	nt	0.84	nt	99
CCOC(=O)C1CCN(c2nc(N)c3c(N)nc4c(c3c2C#N)CC(=O)N4C)CC1	i	nt	0.8	nt	105
O=C(O)CSc1nncs1	i	nt	0.96	nt	101
Cc1ccc(C2=N/C(=C/c3ccc(N4CCOCC4)s3)C(=O)O2)s1	i	nt	1.1	nt	104
CS(=O)(=O)c1ccc(Oc2cccnc2[N+](=O)[O-])c(S(C)(=O)=O)c1	i	nt	0.94	nt	94
CCN(CCOC(=O)C1(c2ccc(Cl)cc2)CC1)c1ccccc1	i	nt	0.94	nt	95
CCCN(CCC)CCc1cccc2c1CC(=O)N2	i	1.1	nt	94	nt
COc1ccccc1-n1cnnc1SCc1cn2cc(Cl)ccc2n1	i	nt	1.1	nt	107
Oc1ccc(Cl)c2c1CCC2	i	1.1	nt	89	nt
CC(C)C(C)Nc1c([N+](=O)[O-])c(=O)oc2ccccc12 (centres undefined)	i	nt	1.1	nt	93
Cc1ncc([N+](=O)[O-])n1CC(O)CCl (centres undefined)	i	1	nt	106	nt
CC1(NC(=O)CCNC(=O)NC23CC4CC(CC(C4)C2)C3)CCS(=O)(=O)C1 (centres undefined)	i	nt	0.92	nt	88
Cc1cc(C)cc(-n2c(SCCNCCO)nnc2-c2ccc(Br)cc2)c1	i	nt	0.84	nt	100
O=C(CN1CCN(S(=O)(=O)N2CCCCCC2)CC1)NC(=O)NC1CC1	i	nt	1	nt	103
COc1ccc(-c2noc(CN3CCN(Cn4cnc5cc(F)c(F)cc54)CC3)n2)cc1	i	nt	0.89	nt	92
NC(=O)CC1CCNCC1	i	nt	1.2	nt	100
N#CNC1=NCCCCC1	i	nt	0.96	nt	104

Copied from the list:
`Oc1ccc(Cl)c2c1CCC2` in total CFTR viability 25 µM → 89
`Cc1ccc(C)c(-n2nnnc2Sc2ncnc3ccsc23)c1` in total CFTR fold 10 ug/mL → 0.9

Going on with the list:
SMILES	total CFTR	total CFTR fold 25 µM	total CFTR fold 10 ug/mL	total CFTR viability 25 µM	total CFTR viability 10 ug/mL
Nc1nc(COC(=O)c2ccc3c(c2)OCCO3)nc2ccccc12	i	nt	1	nt	103
CCOC(=O)[C@H](CCc1ccccc1)N[C@H](C)C(=O)N1C2CCCCC2C[C@H]1C(=O)O (some centres undefined)	i	1.1	nt	88	nt
CCC1OC(=O)[C@H](C)C(=O)[C@H](C)[C@@H](OC2O[C@H](C)C[C@H](N(C)C)[C@H]2O)[C@](C)(OC)C[C@@H](C)C(=O)[C@@H](C)[C@@H]2N(CCCCn3cnc(-c4cccnc4)c3)C(=O)OC12C (some centres undefined)	i	1.1	nt	88	nt
Cc1cc(C(=O)NC(C)C23CC4CC(CC(C4)C2)C3)no1 (centres undefined)	i	nt	0.99	nt	94
CC1(C(=O)Nc2cn[nH]c2)CC1(Cl)Cl (centres undefined)	i	nt	1.1	nt	91
c1cnc(N2CCN(Cc3ccc4c(c3)OCO4)CC2)nc1	i	1.1	nt	99	nt
CCCCc1nc(Cl)c(CO)n1Cc1ccc(-c2ccccc2-c2nnn[nH]2)cc1	i	1.1	nt	97	nt
CC1CCCCN1C(=O)CSc1nc2sc3c(c2c(=O)n1C)CCCC3 (centres undefined)	i	nt	1	nt	95
OCCOCCN1CCN(C2=Nc3ccccc3Sc3ccccc32)CC1	i	1.2&1&0.96	nt	94&92&89	nt
CSc1nnc(SCC(=O)N2CCN(c3oc(C)nc3C#N)CC2)s1	i	nt	1.1	nt	107
COc1ccc(O)c(C(=O)OCC(=O)c2cc(OC)c(OC)c(OC)c2)c1	i	nt	1	nt	89
Cc1sc2nc(SCC#N)n(C3CCCC3)c(=O)c2c1C	i	nt	0.88	nt	79
CCC(=O)N1CCCCC1C(=O)NCC12CC3CC(CC(C3)C1)C2 (centres undefined)	i	nt	1.1	nt	95
N#Cc1ccnc(N2CCN(Cc3nc(N)c4ccccc4n3)CC2)c1	i	nt	1.1	nt	109
O=C(COC(=O)c1cc(-c2cccnc2)nc2ccccc12)c1cccc2ccccc12	i	nt	0.97	nt	102
C#CCNC(=O)Nc1cc(C)on1	i	nt	0.93	nt	96
Cc1nnc(C(=O)NC(C)(C)c2nc(C(=O)NCc3ccc(F)cc3)c(O)c(=O)n2C)o1	i	0.88	nt	101	nt
OC(c1ccccc1)C1CCN(Cc2nc(-c3ccc(C(F)(F)F)cc3)no2)CC1 (centres undefined)	i	nt	0.93	nt	85
O=C(NCC1(c2ccccc2)CCC1)C12CC3CC(CC(C3)C1)C2	i	nt	0.95	nt	86
O=C(OCc1sc2ccccc2c1Cl)C1=NN(C2CCS(=O)(=O)C2)C(=O)CC1 (centres undefined)	0.98	nt	1.7	nt	96
O=C(Cc1cc(Cl)cc(Cl)c1O)c1c(O)c(Cl)cc(Cl)c1Cl	i	0.78	nt	84	nt
CC1(C)C[C@H]1C(=O)N/C(=C\CCCCSC[C@@H](N)C(=O)O)C(=O)O	i	1.1	nt	96	nt
O=C(c1ccccc1)c1c(-c2ccccc2)cn2c1[nH]c1ccccc12	i	nt	1	nt	95
CN1CCN(CC(=O)N2c3ccccc3C(=O)Nc3cccnc32)CC1	i	0.97&1.1	nt	105&93	nt
CN(C)S(=O)(=O)N1CCN(C(=O)Nc2cccc(Cl)c2Cl)CC1	i	nt	1	nt	97
Following part:
SMILES	total CFTR	total CFTR fold 25 µM	total CFTR fold 10 ug/mL	total CFTR viability 25 µM	total CFTR viability 10 ug/mL
Cn1ccnc1C(O)(CCNc1nc2ccccn2c1[N+](=O)[O-])C(F)(F)F (centres undefined)	i	nt	1.1	nt	98
COc1cc2c(cc1OC)CN(Cn1nnn(-c3cccs3)c1=O)CC2	i	nt	1.1	nt	102
CCOC(=O)c1cn[nH]c1S(=O)(=O)NC1(C(=O)OC)CCCCC1	i	nt	0.93	nt	100
O=C(CCC1CCCC1)N1CCN(C(=O)c2cc(-c3ccco3)[nH]n2)CC1	i	nt	0.99	nt	101
C[N+](C)(C)CCOC(N)=O	i	0.92&0.94	nt	82&88	nt
CC(C)c1noc2nc(C3CC3)cc(C(=O)O)c12	i	nt	1.1	nt	94
CC(C)(C)OC(=O)N1CCC(C(=O)N2Cc3cc4c(cc3C3(CCCC3)C2)OCCO4)CC1	i	nt	1.1	nt	102
C#C[C@]1(O)CCC2C3CCc4cc(OC5CCCC5)ccc4C3CC[C@@]21C (some centres undefined)	i	1	nt	78	nt
Cc1ncnc(Nc2ccc(Cl)cc2)n1	i	0.9	nt	95	nt
C[C@@](Cc1ccc(O)c(O)c1)(NN)C(=O)O	i	0.8&1.1&0.92	nt	71&89&83	nt
OC(CNCc1cccc(C(F)(F)F)c1)COc1ccc(Br)cc1 (centres undefined)	i	nt	0.97	nt	84
O=C1SCN(Cc2ccccc2)CN1Cc1ccccc1	i	0.91	nt	90	nt
CS(=O)(=O)NCC1CCCCN1CC(=O)NC(=O)NC1CCCCC1 (centres undefined)	i	nt	0.97	nt	79
Cc1ccsc1CNC(=O)C1COCCO1 (centres undefined)	i	nt	0.98	nt	100
Cn1c(Nc2ccc(N3CCCC3)cc2)c(C#N)c(=O)n(C)c1=O	i	nt	0.97	nt	82
CC(C)C(C)(C#N)NC(=O)CSc1nnnn1C1CC1 (centres undefined)	i	nt	1.1	nt	107
Cc1ccc(CNC(=O)CCCc2cccs2)s1	i	nt	0.97	nt	92
COc1ccc(OCCOc2ccc(C#N)cc2OC)cc1	i	nt	1	nt	99
COc1ccc(C2CCCN2Cn2ncn(C)c2=S)cc1 (centres undefined)	i	nt	1	nt	100
O=S(=O)(c1cc(F)cc(F)c1)N1CCc2ccccc2C1	i	nt	1	nt	94
CCC1(c2ccccc2)NC(=O)N(Cc2cc(=O)oc3cc(C)ccc23)C1=O (centres undefined)	i	nt	0.94	nt	92
CC(C(=O)O)c1ccc(-c2ccccc2)c(F)c1 (centres undefined)	i	1.2&1	nt	91&88	nt
CCc1cc2c(SCCC#N)ncnc2s1	i	nt	1.1	nt	98
CCCCC(CC)CN=C(N)NC(N)=NCCCCCCN=C(N)NC(N)=NCC(CC)CCCC (centres undefined)	i	1.1	nt	75	nt
Cn1c(=O)oc2cc(S(=O)(=O)Nc3cc4c(cc3Br)OCCO4)ccc21	i	nt	0.73	nt	82
Next part:
SMILES	total CFTR	total CFTR fold 25 µM	total CFTR fold 10 ug/mL	total CFTR viability 25 µM	total CFTR viability 10 ug/mL
COc1ccc(-c2nnc(SCCS(=O)(=O)c3ccc(Cl)cc3)o2)cc1OC	i	nt	0.99	nt	93
CC(C(=O)NC1CCCCCC1)S(C)(=O)=O (centres undefined)	i	nt	1	nt	94
CC(C)(C)OC(=O)N1CCN(C(=O)NCc2ccnc(N3CCOCC3)c2)CC1	i	nt	0.94	nt	100
O=C(NC1CCCC1)NC1CCCc2ccccc21 (centres undefined)	i	nt	0.94	nt	93
Cc1nn(CC(C)C)c(C)c1CCC(=O)NC1CC(C)(C)NC(C)(C)C1	i	nt	0.95	nt	101
CC(Nc1nc(-c2cccs2)nc2ccccc12)C1CC2CCC1C2 (centres undefined)	i	nt	0.95	nt	85
Clc1ccc(-c2cc(-c3nc4ccccc4[nH]3)c(-c3ccccc3)o2)cc1	i	nt	0.89	nt	95
O=C1Nc2c(F)cc(F)cc2C1=O	i	nt	0.76	nt	73
Cc1cc(NC(=O)C2CCC2)n(C)n1	i	nt	1	nt	101

This is a subset; count on the stated rates, not on these rows.
